Screens deposited in PubChem by several laboratories.
MT1-MMP act inh: blockers of MT1-MMP proenzyme processing, primary screen, HT1080 RFP-PRO-GFP cells, GFP/RFP fluorescence. Matrix metalloproteinase-14 (Homo sapiens), P50281. GFP/RFP ratio fluorescence, overnight; percent of plate control window, DMSO zero. AID 651647, 2012. GFP/RFP ratio change, % at 20 µM. hit rate 0.061% among 360,000;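 active = GFP/RFP ratio change of at least 30% with cell ATP level not reduced by more than half and red fluorescence within 50% of control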; note: strong numbers were not always called active
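Material: RFP-PRO-GFP reporter HT1080 cells. Dosing: single-point 20 µM compound, 1% DMSO. Controls: DMSO and RFP-L50D-GFP cell wells. Timing: cells overnight before dosing, compound overnight, 37 °C, 5% CO2. Measure: GFP/RFP fluorescence ratio.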
eIF4H FP inh: human eIF4H binding inhibitors, primary screen, translation initiation inhibitor project, biochemical, uHTS, fluorescence polarization | Eukaryotic translation initiation factor 4H (Homo sapiens), Q15056 | eIF4H fluorescence polarization binding assay | inhibition, % at 35 µM | hit rate 0.94% among 290,000 | AID 2012, 2009;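 active = 50% or more with normal probe brightness, or confirmed in later tests; inconclusive = above 50% with abnormal brightness, or retests that disagree; inactive = below 50% or failed in later tests; about a fifth of its hits are not listed in these tables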;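 note: calls also rest on retests at 20 µM and on dose response follow-up; 0% = protein and probe with vehicle and 100% = probe without protein; strong numbers were not always called active; many hits fall short of the cut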
CSC inhib: cancer stem cell viability inhibitors, primary screen, luminescence. cancer stem cell-like cells viability. inhibition, % at 7.5 µM. hit rate 1.1% among 300,000. AID 2717, 2010;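 active = mean at 75% or more and at least half the replicates too; inconclusive = mean and replicates disagree; tested in HMLE shEcad cells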;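 note: 0% = median of negative and 100% = median of positive control wells; the first replicate is given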
Rce1 inh: yeast Rce1p protease inhibitors, primary screen, biochemical, fluorescence, cell-free homogeneous; calls only; yeast membranes, quenched prenylated peptide cleavage fluorescence; hit rate 0.27% among 290,000; CAAX prenyl protease 2 (Saccharomyces cerevisiae (strain ATCC 204508 / S288c)), Q03530;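 active = fall in fluorescence gain of 50% or more versus controls, with final raw signal at or below 3038400; inconclusive = same 50% fall but final raw signal above 3038400; inactive = fall in fluorescence gain under 50%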;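 note: plate controls were neutral control wells for no effect and wells lacking membranes for full effect; tested at 10 µM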
Target sequence (Q03530 whole entry, looked up): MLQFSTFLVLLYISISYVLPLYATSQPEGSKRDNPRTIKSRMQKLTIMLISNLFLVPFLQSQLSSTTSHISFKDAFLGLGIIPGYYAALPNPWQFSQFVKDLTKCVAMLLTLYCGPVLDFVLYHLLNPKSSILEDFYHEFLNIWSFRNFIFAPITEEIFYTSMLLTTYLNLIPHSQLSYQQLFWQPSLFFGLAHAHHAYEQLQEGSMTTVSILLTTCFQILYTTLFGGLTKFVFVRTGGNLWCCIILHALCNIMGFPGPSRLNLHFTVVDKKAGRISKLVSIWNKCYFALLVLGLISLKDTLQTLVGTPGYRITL
PABP FP inh: PABP poly(A) RNA binding inhibitors, primary screen, biochemical, fluorescence polarization, uHTS; inhibition, % at 35 µM; hit rate 1% among 290,000; Polyadenylate-binding protein 1 (Homo sapiens), P11940;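 active = 50% or more with normal probe brightness, or confirmed in later tests; inconclusive = above 50% with abnormal brightness, or retests that disagree; inactive = below 50% or failed in later tests; about a fifth of its hits are not listed in these tables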;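 note: calls also rest on retests at 20 µM and on dose response follow-up; controls were probe without protein and protein plus probe with vehicle; some compounds called inactive have numbers as strong as hits; many hits fall short of the cut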
Target sequence (P11940 whole entry, looked up): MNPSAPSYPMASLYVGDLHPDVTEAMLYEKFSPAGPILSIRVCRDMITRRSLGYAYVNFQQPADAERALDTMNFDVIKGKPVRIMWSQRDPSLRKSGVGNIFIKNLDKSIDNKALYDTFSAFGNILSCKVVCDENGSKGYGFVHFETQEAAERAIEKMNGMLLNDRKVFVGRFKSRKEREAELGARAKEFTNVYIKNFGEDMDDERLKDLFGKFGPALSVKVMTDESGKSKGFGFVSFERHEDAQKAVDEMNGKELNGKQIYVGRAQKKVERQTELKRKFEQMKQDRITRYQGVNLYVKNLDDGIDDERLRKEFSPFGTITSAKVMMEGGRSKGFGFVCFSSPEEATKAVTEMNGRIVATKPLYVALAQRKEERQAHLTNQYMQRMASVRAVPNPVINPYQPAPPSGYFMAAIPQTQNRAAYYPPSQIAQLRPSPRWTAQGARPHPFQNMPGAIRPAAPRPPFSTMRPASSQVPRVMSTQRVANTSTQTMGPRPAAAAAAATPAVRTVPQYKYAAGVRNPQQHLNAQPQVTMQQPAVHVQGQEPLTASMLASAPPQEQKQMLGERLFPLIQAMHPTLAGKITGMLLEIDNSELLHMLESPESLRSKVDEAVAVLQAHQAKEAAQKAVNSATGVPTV
Yeast UUG start: modulators of yeast start codon fidelity, primary screen, whole organism, S. cerevisiae, single point, plate reader. S. cerevisiae UUG-firefly luciferase reporter, luminescence/redox ratio. activity score, % at 18.7 µM. hit rate 0.13% among 350,000;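 active = replicate mean at a twofold rise or more, about +100% in these data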;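 note: firefly luciferase made from a UUG start codon reports start codon fidelity; reporter light over untreated wells divided by growth signal over untreated wells; some hits fall short of that in this replicate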
Env fusion inh: inhibitors of HIV-1 Env-driven cell-cell fusion, primary screen, HeLa-JRFL effector, CEM21 target cells, luciferase | inhibition, % at 12.3 µM | hit rate 1.1% among 360,000 | AID 651610, 2012;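 active = mean replicate inhibition score of at least 50 and every replicate individually at or above 50; inconclusive = only one of the two criteria met; inactive = mean below 50 and not all replicates reaching 50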;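 note: 0% = plate neutral controls and 100% = maraviroc near 300 nM; one replicate is shown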
eIF4H FP inh retest: recorded beside eIF4H FP inh, whose call it bears; inhibition, %; compound at 20 µM; confirmation average;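 mean of two retest wells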
PABP FP inh retest: further read-out of PABP FP inh, marked with its call; inhibition, %; compound at 20 µM; confirmation repeats;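 mean of two retest wells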
MT1-MMP act inh RFP: recorded beside MT1-MMP act inh, whose call it bears; RFP signal change, %; measured here: RFP expression control read;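 0 = vehicle wells; hits needed this value within 50% of zero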
Numbers without * were called inactive; i = inactive; ? = inconclusive; nt = not tested or not shown.

SMILES	MT1-MMP act inh	MT1-MMP act inh RFP	eIF4H FP inh	CSC inhib	Rce1 inh	PABP FP inh	Yeast UUG start	Env fusion inh	others
Oc1[nH]c2ccc(Br)cc2c1N=NC(=S)Nc1ccc(F)cc1	11	-8	13	82*	i	0	-29	33
CC(=O)Oc1ccc(-c2cccc(C(=O)NCCO)c2)cc1	4	6	1	-13	i	?	nt	-8
Cc1ccc(OCC(=O)Nc2c(C)ccc3nsnc23)cc1	2	-2	-7	-12	i	7	-7	-5
COCc1nnc(NS(=O)(=O)c2ccc([N+](=O)[O-])cc2)s1	-3	-3	11	-13	i	13	-12	-148
CC(C)c1cc(Br)ccc1OCCCN1C(=O)NC(C)(C)C1=O	5	-10	-2	2	i	-14	-7	-38
N#Cc1ccc(-c2cccnc2)nc1SCc1ccc(Cl)c(Cl)c1	-4	-7	-15	nt	i	1	-20	13
CCN(C1CCCCC1)S(=O)(=O)c1ccc(S(=O)(=O)N(CC(=O)Nc2ccccc2)C2CC2)cc1	5	-4	-11	nt	i	2	-9	75*
COc1ccc(C(=O)Nc2ccccc2C(=O)Nc2cccc(C)n2)cc1	0	-5	7	2	i	-1	0	-36
Cc1ccc(Cn2c3ccccc3c3cn[nH]c(=O)c32)cc1	-10	-8	4	8	i	5	-4	1
CCOc1ccc2[nH]c3c(c2c1)CNCC3	-6	2	7	-13	nt	19	7	8
NC(=O)/C(N=Nc1ccccc1)=N/Nc1ccccc1	-2	1	nt	10	i	nt	-14	-23
CCn1c(=O)c2ccccc2n2c(SCC(N)=O)nnc12	-2	2	2	-15	i	6	-5	-13
CCOC(=O)C1(C)CCCCCN1C(=O)c1ccc(OC)c(C(F)(F)F)c1 (stereo unspecified)	-4	-5	nt	nt	nt	nt	3	33
CCOc1cnc(-c2ccc(OC)cc2)o1	3	3	6	-5	i	8	-2	nt
S=c1sc2c(N3CCN(Cc4ccccc4)CC3)ncnc2n1-c1ccccc1	-4	-11	-2	62	i	-4	-13	nt

The last 6 entries of the part above are carried over, then new ones follow:
SMILES	MT1-MMP act inh	MT1-MMP act inh RFP	eIF4H FP inh	CSC inhib	Rce1 inh	PABP FP inh	Yeast UUG start	Env fusion inh	others
CCOc1ccc2[nH]c3c(c2c1)CNCC3	-6	2	7	-13	nt	19	7	8
NC(=O)/C(N=Nc1ccccc1)=N/Nc1ccccc1	-2	1	nt	10	i	nt	-14	-23
CCn1c(=O)c2ccccc2n2c(SCC(N)=O)nnc12	-2	2	2	-15	i	6	-5	-13
CCOC(=O)C1(C)CCCCCN1C(=O)c1ccc(OC)c(C(F)(F)F)c1 (stereo unspecified)	-4	-5	nt	nt	nt	nt	3	33
CCOc1cnc(-c2ccc(OC)cc2)o1	3	3	6	-5	i	8	-2	nt
S=c1sc2c(N3CCN(Cc4ccccc4)CC3)ncnc2n1-c1ccccc1	-4	-11	-2	62	i	-4	-13	nt
COc1ccc2[nH]cc(/C=C/C(=O)c3ccccc3)c2c1	-3	-4	-12	51	i	-1	nt	-193
COc1cc(C)c(Cl)cc1S(=O)(=O)n1ccnc1	-6	-1	5	-7	nt	12	nt	-10
COc1ccc(CC(N)c2csc(Nc3ncccn3)n2)cc1 (stereo unspecified)	-2	-5	nt	nt	nt	nt	-13	-6
C#Cc1ccc([C@@H]2C=C(C(=O)NC3CC3)O[C@H](OCc3ccc(CO)cc3)C2)cc1	0	4	nt	-19	i	nt	-10	-21
COC(=O)Cn1c(=NC(=O)CSCC(=O)Nc2cc(C)on2)sc2cc(C(=O)OC)ccc21	-3	0	-1	-7	i	-4	-12	-18
C=CCOc1ccc(C2/C(=C(/O)c3ccc4c(c3)CC(C)O4)C(=O)C(=O)N2CCCN2CCOCC2)cc1 (stereo unspecified)	1	3	-6	7	i	-2	2	-9
Cc1cc(C)c(C(N)=O)c(NC(=O)Nc2ccccc2)n1	5	5	0	-4	i	0	-2	-68
COc1ccc(/C=N/Nc2nc(Nc3ccccc3)nc(N3CCCCC3)n2)c(OC)c1	2	4	-7	-2	i	7	nt	nt
COc1ccc(CC/C(C)=N\NC(N)=O)cc1	1	4	-5	3	i	-6	-12	-7
COc1ccc(F)cc1S(=O)(=O)n1cc(C)nc1-c1ccccc1	1	2	-4	-7	i	19	-8	nt
COc1ccc(C(=O)OCC(=O)NCCN2C(=O)CSC2=O)cc1	-1	3	0	-11	i	0	nt	6
Cc1ccc(OCCCN(C)C)c(Br)c1	4	7	1	-3	i	6	-17	nt
CCc1noc(C)c1C(=O)Nc1ccc(C)c(S(=O)(=O)N2CCCCCC2)c1	2	-18	nt	nt	i	nt	nt	16
COc1ccc(C(=O)OCC(O)COC(=O)c2ccc(OC)cc2)cc1	2	6	nt	14	i	nt	3	-2
NC(=O)CSc1nnc(-c2ccoc2)o1	-2	5	8	-5	i	5	-6	-39
O=C1NN(c2ccccc2)C(=O)/C1=C/c1ccc(Sc2cccc3ccccc23)o1	-7	-1	79	79*	i	-2	nt	-23	eIF4H FP inh retest=-3;PABP FP inh retest=9
CC(=O)Nc1ccc2c(c1)nc(CCNC(=O)c1ccco1)n2C	-1	-2	-2	-6	i	0	-15	-9
COc1cc(CNc2ncnc3c2ncn3[C@H]2CN(Cc3ccc(C(=O)O)cc3)C[C@@H](CO)O2)cc(OC)c1OC	-5	5	nt	nt	nt	nt	-2	-20
O=C1NCCn2ccc(=O)cc21	1	7	-8	-4	i	4	nt	-11
Cc1cccc(NS(=O)(=O)c2cc3c(cc2C)NC(=O)CO3)c1	2	-1	-8	nt	i	6	-19	5
Cc1ccc(/C=N/NC(=O)c2cc(C)oc2C)cc1	0	-2	-7	62	i	-4	-4	-71
O=C(O)c1ccccc1-c1ccccc1C(=O)Nc1nccs1	-1	3	-1	-3	i	-5	nt	11
NC(=O)C1CC(=O)N(c2ccc(OCc3ccc(Cl)c(Cl)c3)cc2)C1 (stereo unspecified)	5	-3	nt	nt	nt	nt	-14	-185
O=C(COc1cccnc1[N+](=O)[O-])Nc1cc(S(=O)(=O)N2CCCCC2)ccc1Cl	4	1	5	-18	i	-6	-25	12
O=C(Nc1cccc(NC(=O)c2cccc(Cl)c2)c1)c1cccnc1	1	-1	0	6	i	-1	-17	26
CCC(C)(C)n1nnnc1C(c1ccccc1OC)N1CCN(C(=O)c2ccco2)CC1 (stereo unspecified)	-2	0	-6	3	i	5	-9	-13
Cc1cccc(N=C2NC(=O)/C(=C/c3cccs3)S2)c1	-4	3	-2	nt	i	14	-10	-31
COC(=O)c1c(NC(=O)C(=O)NCCCN2CCOCC2)sc2c1CCC2	-1	-1	-3	-5	i	-6	-10	5
COc1ccc(S(=O)(=O)N(C)C)cc1NCC(=O)Nc1ccc(Br)c(C)c1	2	-6	4	20	i	1	-15	-2
CCOc1ccc(-n2cnnn2)cc1S(=O)(=O)N1CCC(C)CC1C (stereo unspecified)	0	5	3.6*	-6	i	74*	nt	-12	eIF4H FP inh retest=91*;PABP FP inh retest=88*

Overlap with the part before: 6 compounds, then new ones.
SMILES	MT1-MMP act inh	MT1-MMP act inh RFP	eIF4H FP inh	CSC inhib	Rce1 inh	PABP FP inh	Yeast UUG start	Env fusion inh	others
O=C(Nc1cccc(NC(=O)c2cccc(Cl)c2)c1)c1cccnc1	1	-1	0	6	i	-1	-17	26
CCC(C)(C)n1nnnc1C(c1ccccc1OC)N1CCN(C(=O)c2ccco2)CC1 (stereo unspecified)	-2	0	-6	3	i	5	-9	-13
Cc1cccc(N=C2NC(=O)/C(=C/c3cccs3)S2)c1	-4	3	-2	nt	i	14	-10	-31
COC(=O)c1c(NC(=O)C(=O)NCCCN2CCOCC2)sc2c1CCC2	-1	-1	-3	-5	i	-6	-10	5
COc1ccc(S(=O)(=O)N(C)C)cc1NCC(=O)Nc1ccc(Br)c(C)c1	2	-6	4	20	i	1	-15	-2
CCOc1ccc(-n2cnnn2)cc1S(=O)(=O)N1CCC(C)CC1C (stereo unspecified)	0	5	3.6*	-6	i	74*	nt	-12	eIF4H FP inh retest=91*;PABP FP inh retest=88*
COc1nc(=O)n(C2C=CC(=O)O2)cc1F (stereo unspecified)	3	0	nt	nt	nt	nt	-32	-136
CC1CN(C2CCN(S(=O)(=O)Cc3ccccc3)CC2)CC(C)O1 (stereo unspecified)	-2	6	4	-12	i	14	-15	-16
Cc1cc(Cl)ccc1OC(C)C(=O)Nc1ccccc1N1CCOCC1 (stereo unspecified)	-6	-13	-10	36	i	-11	32	-14
CCn1c(=O)c2cc(C(=O)Nc3ccc(OC)cc3OC)sc2c2ccccc21	2	1	-7	-9	i	-6	nt	-9
CCOC(=O)C1=CCN(S(=O)(=O)c2ccccc2F)C1c1ccc(Cl)cc1 (stereo unspecified)	-1	-2	nt	nt	nt	nt	0	12
O=C(N[C@@H](Cc1ccc(O)cc1)C(=O)O)c1ccc(C(F)(F)F)cc1	2	2	8	-11	i	-12	-10	2
CC(C)(C)c1csc(NC(=O)c2ccc(Cl)s2)n1	-59	-50	5	43	i	5	-7	nt
COc1cc(C(=O)N2CCN(C(=O)C3COc4ccccc4O3)CC2)cc(OC)c1OC (stereo unspecified)	-1	-3	-7	1	i	7	-15	16
CC(=O)Nc1ccc(NS(=O)(=O)c2ccc(-c3cnc(C4CC4)o3)cc2)cc1	-8	-7	5	nt	i	-10	-1	-7
Cc1ccccc1C1CC(c2cccs2)Nc2nnnn21 (stereo unspecified)	-1	3	6	-9	i	8	nt	14
Cc1ccc(Nc2cnn(C34CC5CC(CC(CC(=O)O)(C5)C3)C4)c(=O)c2Cl)c(Cl)c1	0	4	5	-5	i	4	-9	-3
CCc1ccc(OCC(=O)NNC(=O)c2nn(CC)c(=O)c3ccccc23)cc1	0	-2	-10	0	i	-16	nt	6
Cc1cc(OCC(=O)NCCc2cccc(F)c2)c2c(C)cc(=O)oc2c1	-4	-4	7	-8	i	-1	-8	8
Cc1ccccc1CN1[C@@H](C(C)C)COCCS1(=O)=O	1	-4	nt	-5	i	nt	-16	-9
Nc1c(C(=O)c2cccs2)oc2ccccc12	2	5	-7	-14	i	8	-9	-32
Cc1cc(C)c(C)c(S(=O)(=O)N(C)C2CCN(C)CC2)c1C	-5	3	20	17	i	25	nt	4
CCNC(=S)N1CCN(S(=O)(=O)c2ccc(C)cc2)CC1	7	7	-12	-14	i	-12	-21	3
CCOc1ccc(-c2c(C(=O)N/N=C/c3ccc(Cl)cc3)nnn2-c2nonc2N)cc1	-1	-2	nt	-7	i	nt	-6	6
COc1cc(C(=O)NCCc2ccc(F)cc2)c([N+](=O)[O-])cc1OC	1	6	-2	-5	i	-5	-6	-1
